Compound activity: PubChem, National Center for Advancing Translational Sciences (NCATS)
VDR inh = vitamin D3 receptor (human) inhibition; P11473; VDR-SRC2-3 peptide fluorescence polarization, 2 h; Potency, µM, for inactives: max response, negative = inhibition, most hits filed as inhibitors; 0.93% of 400,000 active; AID 504847; active means well fitted inhibition curve with a large enough effect; inconclusive means small, poorly fitted or top-dose-only effect, or another doubt; inactive means no such curve, though single readings can be large or run the other way; further: series mostly up to about 120 µM
Target sequence (P11473 whole entry, looked up): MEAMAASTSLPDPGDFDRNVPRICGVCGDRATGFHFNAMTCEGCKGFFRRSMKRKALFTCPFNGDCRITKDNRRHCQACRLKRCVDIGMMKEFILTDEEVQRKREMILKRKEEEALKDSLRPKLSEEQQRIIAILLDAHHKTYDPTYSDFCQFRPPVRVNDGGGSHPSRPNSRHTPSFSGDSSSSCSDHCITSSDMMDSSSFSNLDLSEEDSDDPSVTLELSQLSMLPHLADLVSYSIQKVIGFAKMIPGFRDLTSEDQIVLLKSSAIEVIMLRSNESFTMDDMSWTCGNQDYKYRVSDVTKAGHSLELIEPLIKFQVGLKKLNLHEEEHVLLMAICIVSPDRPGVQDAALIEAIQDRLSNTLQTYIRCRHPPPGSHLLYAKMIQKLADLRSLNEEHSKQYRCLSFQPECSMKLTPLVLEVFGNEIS
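The screen uses fluorescence polarization to detect compounds that interfere with recruitment of the SRC2-3 coactivator peptide to VDR; plates are read after 2 h at room temperature.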
* = called active by the depositor; ? = inconclusive; & = joins results of further samples; [ ] = another dose, or the depositor's remark. On the % scale 0 is the no-effect control and ±100 the full control effect; potency means the concentration at half of the fitted maximal effect.

> CC1=C(C(=O)OCc2ccccc2)C(c2cccc([N+](=O)[O-])c2)NC(=O)N1 (centres undefined)
  VDR inh: -15%
> O=C(NCCN1CCOCC1)C(=O)NCC1OCCN1S(=O)(=O)c1ccc(F)cc1 (centres undefined)
  VDR inh: -12%
> CC(=O)c1cc2c(cc1NC(=O)C1CC=CCC1C(=O)O)OCO2 (centres undefined)
  VDR inh: -9%
> COc1cc([N+](=O)[O-])ccc1-c1ccc(/C=N\n2cnnc2)o1
  VDR inh: -10%
> CCOc1ccc(C(=O)NC2CC(=O)N(c3ccc4c(c3)OCCO4)C2)cc1 (centres undefined)
  VDR inh: 0%
> O=C(Nc1ccc(F)c(F)c1)c1ccc(-n2cncn2)c([N+](=O)[O-])c1
  VDR inh: 1%
> CCCCC/C=C\C/C=C\C/C=C\C/C=C\CCCCCC(N)=O
  VDR inh: 0%
> CCOC(=O)C(=CNc1cc(C(F)(F)F)ccc1N1CCOCC1)C(=O)OCC
  VDR inh: -18%
> N#Cc1cccc(CS(=O)(=O)c2nnnn2-c2cc(C(F)(F)F)cc(C(F)(F)F)c2)c1
  VDR inh: 8%
> CC(=O)N1N=C(c2ccc(Cl)cc2)OC12CCCC2
  VDR inh: -9%
> Cn1c(SCc2nc3ccccc3[nH]2)nnc1-c1cnccn1
  VDR inh: 9%
> Cc1ccc(C(=O)c2cn(Cc3ccc(F)cc3)c3nc(C)ccc3c2=O)cc1
  VDR inh: ?
> O=[N+]([O-])c1ccc(OCCN2CCCCCC2)cc1
  VDR inh: 3%
> Cc1ccc(-c2cc(C(F)F)n3ncc(C(=O)N4CCc5ccccc5C4)c3n2)cc1
  VDR inh: -14%
> Cc1ccc(NC(=O)Nc2sc3nc4n(c(=O)c3c2C)CCC(C)CC4)c(Cl)c1 (centres undefined)
  VDR inh: 4%

> Cc1cccc(-n2cc3c(=O)n(C)c(=O)n(C)c3c2)c1
  VDR inh: 18%
> Clc1cccc(Cl)c1-c1nnc2ccc(N3CCOCC3)nn12
  VDR inh: 23%
> Cc1ccc2c(c1)c1c(n2CC(O)Cn2c(C)nc3ccccc32)CCCC1 (centres undefined)
  VDR inh: -1%
> Cc1cc(C)n2nc(NCc3ccccc3)nc2n1
  VDR inh: -3%
> C/C(=N\NC(=O)c1csc(C)c1C)c1ccco1
  VDR inh: 1%
> Cc1ccccc1CSCC(=O)N1CCN(c2ccccc2)CC1
  VDR inh: 9%
> COCc1cc(C)nc(OCC(=O)N/N=C/c2ccccc2O)c1C#N
  VDR inh: -13%
> COc1ccc(-c2sc(N)nc2-c2ccccc2)cc1
  VDR inh: -7%
> COc1cccc(CNC(=O)C2CCN(S(=O)(=O)c3ccc(-n4cnnn4)cc3)CC2)c1
  VDR inh: 5%
> c1ccc2ccccc2c1
  VDR inh: 3%&4%
> COC(=O)c1ccccc1NC(=S)N1CCN(C2CCCCC2)CC1
  VDR inh: ?
> CCC(C)(C)NC(=O)C(c1ccc(OC)cc1)N(CC1CCCO1)C(=O)CCC(=O)Nc1cc(C)on1 (centres undefined)
  VDR inh: -11%
> O=C(CCCc1ccncc1)c1ccccc1
  VDR inh: 7%
> CCC(C(=O)O)C1CCC(C)C(C(C)C(O)C(C)C(=O)C(CC)C2OC3(C=CC(O)[C@@]4(CC[C@](C)(C5CC[C@@](O)(CC)C(C)O5)O4)O3)C(C)CC2C)O1 (some centres undefined)
  VDR inh: -10%
> COCCn1c(SCC(=O)N2CCCC(C)C2)nnc1-c1ccco1 (centres undefined)
  VDR inh: -7%

The closing 4 entries of the section above are carried over, then new ones follow:
> CCC(C)(C)NC(=O)C(c1ccc(OC)cc1)N(CC1CCCO1)C(=O)CCC(=O)Nc1cc(C)on1 (centres undefined)
  VDR inh: -11%
> O=C(CCCc1ccncc1)c1ccccc1
  VDR inh: 7%
> CCC(C(=O)O)C1CCC(C)C(C(C)C(O)C(C)C(=O)C(CC)C2OC3(C=CC(O)[C@@]4(CC[C@](C)(C5CC[C@@](O)(CC)C(C)O5)O4)O3)C(C)CC2C)O1 (some centres undefined)
  VDR inh: -10%
> COCCn1c(SCC(=O)N2CCCC(C)C2)nnc1-c1ccco1 (centres undefined)
  VDR inh: -7%
> CN(Cc1ccccc1)C(=O)CN(C)S(=O)(=O)c1ccc(F)cc1
  VDR inh: -7%
> CC(C)c1ccc(OCC(=O)NCc2n[nH]c(=O)c3ccccc23)cc1
  VDR inh: 14%
> COc1ccc(S(=O)(=O)N2CCN(C(=O)CNC(=O)c3ccc4c(c3)OCO4)CC2)cc1
  VDR inh: -5%
> Cc1ccccc1Nc1nc(N)nc(CSc2nnnn2C)n1
  VDR inh: -16%
> CCOc1ccc(NC(=O)N2CCN(CC)CC2)cc1
  VDR inh: -2%
> Cc1ccc(/C=N/NC(=O)c2nnn(-c3nonc3N)c2CSc2ccc(Cl)cc2)o1
  VDR inh: -6%
> COc1ccc(-c2c(C)nc(N)nc2-c2ccc(OC)cc2O)cc1
  VDR inh: 2%
> O=C(CCn1c(=O)c2cccn2c2cccnc21)N1CCN(c2ccccc2)CC1
  VDR inh: 5%
> CCc1ccc2oc(C(=O)Nc3ccc(S(N)(=O)=O)cc3)c(C)c2c1
  VDR inh: 23%
> COc1cc(/C=N/Nc2nc(Nc3ccccc3)nc(-n3nc(C)cc3C)n2)cc(OC)c1OC
  VDR inh: 2%
> COc1ccc(C2Nc3ccccc3C(=O)N2Cc2ccco2)cc1CN1C(=O)c2ccccc2C1=O (centres undefined)
  VDR inh: 13%&36%&-30%
> COc1cc(NC(=O)NCCn2nnc3cc(S(=O)(=O)N(C)C)ccc32)cc(OC)c1
  VDR inh: 8%
> Cc1cc(C)n(C(=O)CCCn2nc(C)c([N+](=O)[O-])c2C)n1
  VDR inh: -4%
> COc1ccc(C(CCN2CCN(c3ccccc3)CC2)c2c(O)cc(OC)cc2OC)cc1 (centres undefined)
  VDR inh: -17%&-5%
> CCCCCCc1cc2cc(-c3nnc(-c4cc(OC)c(OC)c(OC)c4)o3)c(=O)oc2cc1O
  VDR inh: -12%

> CC(C)CN(C(=O)Cn1nnc(-c2ccc(F)cc2)n1)C1CCS(=O)(=O)C1 (centres undefined)
  VDR inh: 18%
> CC(Nc1nc2ncn(Cc3ccccc3)c2c(=O)[nH]1)C(=O)O (centres undefined)
  VDR inh: 5%
> CCOc1cccc(C(=O)Nc2c(C(=O)c3ccc(OC)cc3)oc3ccccc23)c1
  VDR inh: -4%
> CCC(=O)c1ccc(OCC(=O)OCC(=O)c2cc(C)n(CC3CCCO3)c2C)cc1 (centres undefined)
  VDR inh: -6%
> CCOC(=O)CSc1nc2c(c(=O)n(C)c(=O)n2C)n1Cc1ccccc1F
  VDR inh: -12%
> C#CCOCCOCCOCCNc1nc(N2CCN(C(=O)CCCCCCCCCCNC(=O)[C@H](CCCCN)n3cc(C[C@@H](C)CC)nn3)CC2)nc(N2CCN(C(=O)CCCCCCCCCCNC(=O)[C@H](CCCCN)n3cc(C[C@@H](C)CC)nn3)CC2)n1
  VDR inh: 58%[activator]
> COCCNC(=O)C(c1ccco1)N(Cc1ccc(OC)cc1)C(=O)Cn1nnc2ccccc21 (centres undefined)
  VDR inh: 2%
> O=[N+]([O-])c1ccc(C(O)C23CN4CN(CN(C4)C2)C3)cc1 (centres undefined)
  VDR inh: -24%
> O=C(COc1ccc(Br)cc1)Nc1ccc([N+](=O)[O-])cn1
  VDR inh: -12%
> COC(=O)c1ccc(NC(=S)NC2CC2)cc1
  VDR inh: 2%
> COc1ccc(OC(=O)Nc2ccc([N+](=O)[O-])cc2OC)cc1
  VDR inh: -10%
> Cc1cc(N(CCO)CCO)ccc1C(c1ccc(N(CCO)CCO)cc1C)c1ccccc1Cl
  VDR inh: -15%
> CCOc1cc(C#N)c(NC(=O)c2ccc(OC)c(S(=O)(=O)N3CCN(c4ccccc4)CC3)c2)cc1OCC
  VDR inh: 10%
> CCOC(=O)C1CCCN(C(=O)c2cc3ccccc3cc2OC)C1 (centres undefined)
  VDR inh: -8%
> Cc1nn(CC(=O)NNC(=O)c2ccc(Br)cc2)c(C)c1[N+](=O)[O-]
  VDR inh: 17%

(cont.)
SMILES | VDR inh
COCCNc1nc2c(S(=O)(=O)c3ccccc3)nnn2c2ccc(Cl)cc12 | 9%
COC(=O)CCN(Cc1ccco1)S(=O)(=O)c1ccc(F)cc1Br | -15%
COc1ccc(-n2c(=S)[nH]c3cc(C(=O)NCCCN4CCCC4=O)ccc3c2=O)c(OC)c1 | -10%
CCCCn1cc2c(c1-c1ccc(Cl)cc1)c(=O)n(C)c(=O)n2C | -5%
COc1ccc(CNC(=O)c2cc(-c3ccc(OC)c(OC)c3)nc3n[nH]c(-c4ccc(C)cc4)c23)cc1 | 0%
CC(C)(C)c1ccc(C(=O)NCCn2c(N)c(C#N)c3nc4ccccc4nc32)cc1 | -22%
CC(Oc1ccc(F)cc1)c1nnc(SCC(=O)N(c2ccccc2)C2CCS(=O)(=O)C2)o1 (centres undefined) | 15%
Cc1ccc(NC(=O)CN2C(=O)N/C(=C/c3cc(C)n(-c4cccc(C(=O)O)c4)c3C)C2=O)cc1 | -15%
Cn1c2ccccc2c(=O)c2cc(C#Cc3ccccn3)ccc21 | ?
Cn1c(NC2CCCCC2)c(N=O)c(=O)n(C)c1=O | -24%
O=Cc1c(N2CCN(c3ccccc3)CC2)nc2ccccn2c1=O | -1%
CC(C)(C)OC(=O)n1cc(C(=O)c2ccccc2O)cn1 | 5%
FCCCOc1ccc(/C=N/OCc2c(Cl)cccc2Cl)cc1 | -5%
COC(=O)c1c(NC(=O)c2ccco2)sc2c1CCC2 | -8%
O=C(COc1ccccc1)NC(=S)Nc1ccc2c(c1)Cc1ccccc1-2 | 15%
Cn1cnnc1SCc1ccccc1Br | -6%
CCCCc1cc2c(cc1NC(=O)CN1CCCCC1)OCCO2 | -11%
Cc1ccc(NC(=O)C2C(=O)N(C)c3ccccc32)cc1 (centres undefined) | -2%
Cc1c(Cl)cccc1NC(=S)NCC1COc2ccccc2O1 (centres undefined) | -19%
COCCCNC(=O)c1oc2c(c1C)-c1nn(Cc3ccc(Cl)cc3)cc1CC2 | -1%
Cc1ccc(S(=O)(=O)N2CCC(=O)N(C(COCc3cccc(Cl)c3)Cc3ccccc3)CC2)cc1 (centres undefined) | 7%
Cc1ccc(-c2nc(CCNC(=O)C(=O)Nc3ccc(C)cc3C)cs2)cc1 | 0%
Cc1cc[n+](-c2[nH]c(=O)sc2/C=N/N=C(\[O-])CCn2c3ccccc3c3ccccc32)cc1 | -2%
Cc1ccc(CSc2n[nH]c(N)n2)cc1 | -16%
O=C(NC1CCCCC1)C(c1cccnc1)N(C(=O)CCl)c1cccc(Cl)c1 (centres undefined) | -8%
COc1cccc(C2c3c(oc4ccccc4c3=O)C(=O)N2c2ccccn2)c1 (centres undefined) | 6%
COC(=O)C1=C(c2ccccc2)c2ccccc2S(=O)(=O)N1CC(=O)Nc1ccccc1Cl | 1%
COc1ccc(CCNC(=O)c2ccc3c(c2)nc2n3CCCCC2)cc1OC | 27%
Cc1sc(NC(=O)CN2C(=O)NC3(CCCC3)C2=O)nc1-c1ccc(F)cc1 | -16%
CCOC(=O)CSc1nc(C)c(Oc2ccc(Cl)cc2Cl)c(=O)[nH]1 | 10%
COc1ccccc1CNC(=O)CCCn1c(=O)c2cccn2c2ccccc21 | 4%
COc1ccc(NC(=O)c2cccc(OC(=S)N3CCOCC3)c2)cc1 | -7%
CC(=O)N1CCc2cc(S(=O)(=O)CCC(=O)Nc3ccc(C)cc3Br)ccc21 | -29%
Cc1ccc(S(=O)(=O)N(C)c2ccc(OCC(=O)NCc3ccco3)cc2)cc1 | 0%
CCOc1cccc(-c2nnc3sc(COc4ccccc4)nn23)c1 | -11%
COc1ccc(-c2nn(CC(=O)NCCc3ccccc3)c(=S)n2C)cc1 | -15%
CCCCOc1ccc(C(=O)Nc2cc(C)c(OCC(=O)N3CCOCC3)c(C)c2)cc1 | -9%
O=C(Nc1ccc2c(c1)OCCO2)C1CCN(C(=O)c2ccccc2)CC1 | 8%
COC(=O)C(Cc1ccccc1)NC(=O)c1cc(=O)[nH]c2ccccc12 (centres undefined) | 13%
COc1ccc(Cl)cc1NC(=O)COC(=O)C1COc2ccccc2O1 (centres undefined) | -10%
NC(=O)CSc1nnc(Cn2c(=O)sc3ccccc32)n1-c1cccc(Cl)c1 | -8%
CC(C)Oc1snc(Cl)c1C(N)=O | -7%
COc1ccc(S(=O)(=O)NC(CC(=O)NC2CCCC2)c2ccco2)cc1 (centres undefined) | -11%
Cc1c(CNC2CCC(C)CC2)c(C(=O)O)c(C)n1Cc1ccc(Cl)cc1 (centres undefined) | 12%
O=c1c2cnn(-c3ccccc3)c2ncn1Cc1ccccc1F | -17%
CCCNC(=O)NC(=O)COc1ccc(-c2ccc(C#N)cc2)cc1 | -2%
Cc1nn(-c2ccccc2)c(Cl)c1/C=N/NC(=O)c1[nH]ncc1Br | -26%
CCCCNC(=O)C(Cc1ccccc1)NS(=O)(=O)c1ccc2c(c1)c(=O)n(C)c(=O)n2C (centres undefined) | -18%&3%
C=CCn1c(Cc2c[nH]c3ccccc23)n[nH]c1=S | 7%
COc1ccc(-c2nc3cnc(N4CCN(C)CC4)nc3n(CCc3ccccc3)c2=O)cc1 | -1%
CCCc1cnc2c(c1SCc1ccc(C(F)(F)F)cc1)c(=O)n(C)c(=O)n2C | 21%
Cc1nc(Cl)c(C(=O)NCc2ccccc2)c(C)c1[N+](=O)[O-] | -11%

Part of the list above in order of formula weight, ascending:
SMILES | VDR inh
O=C(CCCc1ccncc1)c1ccccc1 | 7%
Cn1c(NC2CCCCC2)c(N=O)c(=O)n(C)c1=O | -24%
Cc1cccc(-n2cc3c(=O)n(C)c(=O)n(C)c3c2)c1 | 18%
Cn1c(SCc2nc3ccccc3[nH]2)nnc1-c1cnccn1 | 9%
CCOc1cccc(-c2nnc3sc(COc4ccccc4)nn23)c1 | -11%
COC(=O)c1ccccc1NC(=S)N1CCN(C2CCCCC2)CC1 | ?
COc1ccc(-c2nc3cnc(N4CCN(C)CC4)nc3n(CCc3ccccc3)c2=O)cc1 | -1%

This is a subset (hit frequency here may not be typical).
